Bioassay records (PubChem BioAssay)
NPYLR7 agonist: mosquito NPYLR7 agonism; 270,000 compounds, 0.15% hits; activation, % at 10 µM; HEK293T NPYLR7/Galpha15, GCaMP6s calcium fluorescence; in the data active means activation above about 40%;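 further: 0% = vehicle and 100% = reference agonist at the receptor; some compounds past the cut are filed as inactive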
NPYLR7 agonist max-min: further read-out of NPYLR7 agonist, marked with its call; activation, %; measured here: Max-Min RFU normalised activation; some inactives read as strong as hits;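 span of the calcium signal over five minutes; 0% = vehicle and 100% = native peptide agonist; compound fluorescence can raise it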
The depositor's hits bear a star. This is a subset (hit frequency here may not be typical).

SMILES	NPYLR7 agonist	NPYLR7 agonist max-min
Cc1cc(NC(=O)C(OC(=O)c2ccccc2F)c2ccccc2)no1 (stereo not drawn)	4	1
O=C(Nc1cccc(C(F)(F)F)c1)N(Cc1cccn1Cc1ccccc1Cl)C1CCCCC1	6	15
Fc1ccc(/C=C/c2nnc(-c3ccccc3Cl)o2)cc1	5	15
COc1ccc2c(c1)CN(C(=O)CCc1nc3ccccc3c(=O)[nH]1)CC2	3	1
O=C(NC1CC(=O)N(Cc2cccc3ccccc23)C1)c1ccoc1 (stereo not drawn)	20	10
Cn1c(C2CCN(S(C)(=O)=O)CC2)nn(Cc2ccccc2Cl)c1=O	-1	7
Cc1ccc(NC(=O)c2sc(=O)n(Cc3ccccc3F)c2C)cc1	-9	-9
OC[C@H]1CCN(Cc2ccc3[nH]ccc3c2)C[C@H]1O	5	2
CCc1ccc(-c2cc(C(=O)N=Nc3c(O)[nH]c4ccccc34)[nH]n2)cc1	3	4
Cc1cnc(C(=O)OCC(=O)c2cc(C)n(-c3cc(C)on3)c2C)cn1	-3	-6
CC(=O)Nc1ccc(N=Nc2c(-c3ccccc3)[nH]n(-c3ccccc3)c2=O)cc1	4	-2
CCN(CC)S(=O)(=O)c1ccc(OC)c(N2CCN(C(=O)C(OC(C)=O)c3ccccc3)CC2)c1 (stereo not drawn)	6	6
CCCOc1ccc(C2C3=C(CC(C)(C)CC3=O)N=C(C)C2C#N)cc1 (stereo not drawn)	-21	-23
COc1ccc(CNC(=O)Cn2nc3c(c2NC(=O)C2CC2)CSC3)cc1	-5	-2
C[C@H](c1ccc(F)cc1)n1c(C2CCC2)n[nH]c1=O	-1	-5
COCC(=O)Nc1cccc(-c2csc3nc(C)c(C)c(=O)n23)c1	15	8
COc1cccc(OCc2nc(C(=O)N3CCCCCCC3)co2)c1	7	2
CCCCOc1ccc(-c2nc(C=Nc3ccc(C)cc3Br)c(O)o2)cc1	-2	-6
CN(CCc1ccccn1)c1nc(-c2cccc(Br)c2)nc2ccccc12	-2	-1
NCCNS(=O)(=O)c1cccc2c(Cl)cccc12	1	-19
Cc1nc(C2CC2)ncc1C(=O)N1C[C@H]2CC[C@H]1C2	21	9
CCOC(=O)c1c(CN2CCOCC2)n(C)c2ccc(O)cc12	-2	-2
O=C(c1ccco1)N1CCN(C2CCCC2)CC1	3	-1
CC1Cc2c(NC(=O)C3c4ccccc4Oc4ccccc43)nn(C)c2NC1=O (stereo not drawn)	-17	-22
O=C(NNC(=O)c1ccco1)c1cccc(Oc2ccccc2)c1	2	4

Further records.
SMILES	NPYLR7 agonist	NPYLR7 agonist max-min
CC(C)CC(NC(=O)c1n[nH]c2c1CN(C)CC2)c1ncnn1C (stereo not drawn)	6	2
COc1ccc(CCOc2nc(-c3ccco3)n(-c3cccc(NC(=O)c4cccc(OC)c4)c3)n2)cc1	2	12
COc1cn(CC(=O)Nc2ccc(C)cc2C)c(CN2CCN(C(C)=O)CC2)cc1=O	1	-2
Cc1noc(C)c1Cn1cnc(-c2ccccc2)c1-c1ccc(CO)o1	7	3
COc1ccccc1CN1CC(O)CN(C(=O)c2cccc(C(F)(F)F)c2)CC1=O (stereo not drawn)	24	29
O=C(COc1nnc2ccccn12)Nc1cc(F)cc(F)c1	0	0
C=CCN1C(=O)NC(c2cccc(Cl)c2)C2=C1CN(CC(=O)O)C2=O (stereo not drawn)	-12	-11
CCOC(=O)c1ccc2c(c1)nc(SCC(=O)NCc1cccs1)n2Cc1ccccn1	17	27
CCOc1ccc(C(=O)Nc2cccc(-c3nc4cc(Cl)ccc4o3)c2)cc1[N+](=O)[O-]	8	3
COC(=O)c1sccc1NS(=O)(=O)c1cc(Cl)cc(Cl)c1	-8	-12
CCCCNC(=O)N1CCN(c2cc(Cl)nc(SCC(=O)NCc3ccco3)n2)CC1C (stereo not drawn)	-7	1
COC(=O)CC1c2cccnc2C(=O)N1c1ccccc1 (stereo not drawn)	1	6
CC1(C(=O)NS(=O)(=O)c2ccccc2Cl)CCN1C(=O)C1(c2ccccc2)CCCC1 (stereo not drawn)	-2	-3
CCN1CCc2c(sc3nc(Cc4ccccc4)nc(N4CCN(C(=O)c5cccc(Cl)c5)CC4)c23)C1	-2	-1
CCOc1ccccc1CN1CCNC(=O)C1CC(=O)N1CCCCO1 (stereo not drawn)	-2	-6
CC(C)(C(=O)N1CCC(NC(=O)C2CCCCC2)CC1)c1ccccc1	-7	-8
COc1ccccc1NC(=O)N1CCC(CCc2ccc(-c3ccccc3)cc2)CC1	15	8
NC(=O)CCC1CCCN(c2ccnc3ccc(Cl)cc23)C1 (stereo not drawn)	-13	-12
CCCCc1ccc(NC(=O)Cn2nc(C3CCN(S(C)(=O)=O)CC3)n(C)c2=O)cc1	2	8
CC1(C)NC(=O)N(CC(O)COc2ccc(N3C(=O)C4CC=CCC4C3=O)cc2)C1=O (stereo not drawn)	-13	-13
CN(C)S(=O)(=O)CCNC(=O)[C@@H]1C[C@H]1c1ccccc1	-5	-5
CCCc1nc(N2CCN(C(=O)COCc3ccccc3)CC2)c2c(-c3ccccc3)noc2n1	15	5
O=C(Cc1ccccc1)Nc1ccnn1C1CCN(Cc2cn[nH]c2-c2ccccc2)CC1	-2	-5
CCOC(=O)c1c(NC(=O)c2c(F)cccc2Cl)sc2c1CCN(c1ccc(Cl)nc1)C2	13	6
COc1cc(-c2csc(CCn3[nH]c(C)cc3=O)n2)cc(OC)c1OC	-4	-8

Next part.
SMILES	NPYLR7 agonist	NPYLR7 agonist max-min
Cc1ccc(N2CC(C(=O)N3CCN(c4ncnc5c4nnn5C)CC3)CC2=O)cc1C (stereo not drawn)	1	12
COc1ccc(N2CCN(c3cc(C(=O)NCc4cccs4)c4ccccc4n3)CC2)cc1	26	34
Cc1cc(C)cc(COc2coc(CN3CCN(C(=O)c4c(F)c(F)cc(F)c4F)CC3)cc2=O)c1	0	-1
CCOc1ccc(OCC)c(S(=O)(=O)NCCn2nc(-c3ccc(OC)cc3)ccc2=O)c1	-1	-2
CCCc1c(C(=O)N2CCCC(C(=O)OCC)C2)cnn1CC(F)(F)F (stereo not drawn)	4	15
COC(C)(C)CNC(=O)N(C)Cc1cc(Br)cn1C	7	4
CC(=O)Nc1ccc(-c2ccc3nnc(C)n3n2)cc1	-18	-15
Cc1nc2scc(C)n2c(=O)c1NC(=O)CCSc1ccccc1	16	8
CCN(CC)Cc1nc(Cl)c2c(C)c(C)sc2n1	0	2
CC(=O)NC(c1ccccc1)c1nc(-c2ccccc2C)cs1 (stereo not drawn)	-4	-3
NS(=O)(=O)c1ccc(NC2CCCCC2)nc1	2	4
CCOC(=O)CCC(=O)N(CC(=O)c1c(C)c(C(=O)OC)n(CC)c1C)C1CCCCC1	-14	-12
Cc1ccc(Cn2c(N3CCNCC3)nc3c2c(=O)[nH]c(=O)n3C)cc1	4	0
COCCN(CC(=O)N(Cc1ccc(F)cc1)Cc1ccco1)C(=O)c1ccc([N+](=O)[O-])cc1	-5	-5
Cc1ccc(C)c(N2CCn3c2nc2c3c(=O)n(CC(C)C)c(=O)n2C)c1	1	-2
CC(NC(=O)CSc1nncn1C1CC1)c1cc2ccccc2o1 (stereo not drawn)	1	-2
CC(C)CCN1CCNC(=O)C1CC(=O)NCC(C)(C)N1CCOCC1 (stereo not drawn)	0	-3
CCOC(=O)C1CCCN(C(=O)c2cnn(-c3ccc([N+](=O)[O-])cc3)c2-c2ccccc2)C1 (stereo not drawn)	-1	2
CC(C)C[C@H](NC(=O)Cc1ccc(C(F)(F)F)cc1)C(=O)NCC#N	8	1
CC(=O)c1c(C)[nH]c(C(=O)CSC2CCCC2)c1C	2	1
Cc1ccsc1CN(C)c1cc(N2CCOCC2)ncn1	-7	-8
CCS(=O)(=O)c1cccc(C(=O)N=c2sc3cc(F)cc(F)c3n2CC(=O)OC)c1	-6	-8
CC1CCN(C(=O)C2=NN(C)C(=O)CC2)c2ccccc21 (stereo not drawn)	3	0
CCN(Cc1ccc2c(c1)OCO2)C(=O)Nc1ccc(OC)nc1	-3	-1
CCCCCC12CCC(O)(CC1)CC2O (stereo not drawn)	6	5

The results go on.
SMILES	NPYLR7 agonist	NPYLR7 agonist max-min
O=C1Cc2cc3ccccc3cc2C2(CCN(C(=O)c3cccc4cccc(C(=O)O)c34)CC2)N1	1	9
CNC(=O)CSc1nc(-c2ccccc2)c(NC(=O)c2cccc(C)c2)s1	-3	-10
CC(Oc1ccc(C(N)=O)cc1)C(=O)c1ccc(Br)cc1 (stereo not drawn)	11	10
CCOC(=O)c1c(C)[nH]c(C(=O)NC(C)c2cnn(-c3ccccc3C)c2C)c1C (stereo not drawn)	4	3
CC(=O)N1CCC(NCc2ccc(N3CCCCC3)cc2)C(C)C1 (stereo not drawn)	13	9
O=C(NC(c1ccc(F)cc1)c1ccc2ccccc2n1)C1CCN(CCOc2ccc(F)cc2)CC1 (stereo not drawn)	3	3
O=C(Cn1cnc2sccc2c1=O)Nc1ccc(Br)cc1F	-6	-7
CCSCCNC(=O)c1ccc(-c2cc(-c3ccc(Cl)cc3)[nH]n2)cc1	2	3
CC(NC(=O)c1cc(-c2cccs2)nn1C)c1nnc2n1CCNCC2 (stereo not drawn)	1	-8
CCOC(=O)c1nn(Cc2ccccn2)c2c1CN(C(=O)c1csc(SC)n1)CC2	6	-1
O=C(Nc1cccc(CN2C(=O)CNC2=O)c1)c1cc(Cl)ccc1F	1	-2
CCSc1nc(CC(=O)N(C)Cc2ncc(C)[nH]2)cs1	6	2
Cn1c2nc(=Nc3ccccc3)n3c(c2c(=O)n1-c1ccccc1)CCC3	0	6

Some of the entries so far, with values under each structure:
The line under a structure holds: NPYLR7 agonist	NPYLR7 agonist max-min
- Cc1ccsc1CN(C)c1cc(N2CCOCC2)ncn1
  -7	-8
- CCS(=O)(=O)c1cccc(C(=O)N=c2sc3cc(F)cc(F)c3n2CC(=O)OC)c1
  -6	-8
- CC1CCN(C(=O)C2=NN(C)C(=O)CC2)c2ccccc21 (stereo not drawn)
  3	0
- CCN(Cc1ccc2c(c1)OCO2)C(=O)Nc1ccc(OC)nc1
  -3	-1

Grouped by structure, those above containing an NH in an aromatic ring.
SMILES	NPYLR7 agonist	NPYLR7 agonist max-min
COc1ccc2c(c1)CN(C(=O)CCc1nc3ccccc3c(=O)[nH]1)CC2	3	1
OC[C@H]1CCN(Cc2ccc3[nH]ccc3c2)C[C@H]1O	5	2
CCc1ccc(-c2cc(C(=O)N=Nc3c(O)[nH]c4ccccc34)[nH]n2)cc1	3	4
CC(=O)Nc1ccc(N=Nc2c(-c3ccccc3)[nH]n(-c3ccccc3)c2=O)cc1	4	-2
C[C@H](c1ccc(F)cc1)n1c(C2CCC2)n[nH]c1=O	-1	-5
CC(C)CC(NC(=O)c1n[nH]c2c1CN(C)CC2)c1ncnn1C (stereo not drawn)	6	2
O=C(Cc1ccccc1)Nc1ccnn1C1CCN(Cc2cn[nH]c2-c2ccccc2)CC1	-2	-5
COc1cc(-c2csc(CCn3[nH]c(C)cc3=O)n2)cc(OC)c1OC	-4	-8
Cc1ccc(Cn2c(N3CCNCC3)nc3c2c(=O)[nH]c(=O)n3C)cc1	4	0
CC(=O)c1c(C)[nH]c(C(=O)CSC2CCCC2)c1C	2	1
CCOC(=O)c1c(C)[nH]c(C(=O)NC(C)c2cnn(-c3ccccc3C)c2C)c1C (stereo not drawn)	4	3
CCSCCNC(=O)c1ccc(-c2cc(-c3ccc(Cl)cc3)[nH]n2)cc1	2	3
CCSc1nc(CC(=O)N(C)Cc2ncc(C)[nH]2)cs1	6	2
